Screens (PubChem)
KCNQ2 block: KCNQ2 potassium channel inhibitors, primary screen, cell-based, CHO-K1, FluxOR thallium flux, B-score (AID 2156). 20 min; hits give low values; only compounds with negative scores are shown here; some inactives read as strong as hits. B-score at 10 µM. actives 1.1% (n = 310,000). Potassium voltage-gated channel subfamily KQT member 2 (Rattus norvegicus), O88943;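 active = fluorescence ratio B-score at most minus 3 library SDs, with starting brightness B-score within 2 library SDs, cut at about -5.5 in these data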
Target sequence (O88943 whole entry, looked up): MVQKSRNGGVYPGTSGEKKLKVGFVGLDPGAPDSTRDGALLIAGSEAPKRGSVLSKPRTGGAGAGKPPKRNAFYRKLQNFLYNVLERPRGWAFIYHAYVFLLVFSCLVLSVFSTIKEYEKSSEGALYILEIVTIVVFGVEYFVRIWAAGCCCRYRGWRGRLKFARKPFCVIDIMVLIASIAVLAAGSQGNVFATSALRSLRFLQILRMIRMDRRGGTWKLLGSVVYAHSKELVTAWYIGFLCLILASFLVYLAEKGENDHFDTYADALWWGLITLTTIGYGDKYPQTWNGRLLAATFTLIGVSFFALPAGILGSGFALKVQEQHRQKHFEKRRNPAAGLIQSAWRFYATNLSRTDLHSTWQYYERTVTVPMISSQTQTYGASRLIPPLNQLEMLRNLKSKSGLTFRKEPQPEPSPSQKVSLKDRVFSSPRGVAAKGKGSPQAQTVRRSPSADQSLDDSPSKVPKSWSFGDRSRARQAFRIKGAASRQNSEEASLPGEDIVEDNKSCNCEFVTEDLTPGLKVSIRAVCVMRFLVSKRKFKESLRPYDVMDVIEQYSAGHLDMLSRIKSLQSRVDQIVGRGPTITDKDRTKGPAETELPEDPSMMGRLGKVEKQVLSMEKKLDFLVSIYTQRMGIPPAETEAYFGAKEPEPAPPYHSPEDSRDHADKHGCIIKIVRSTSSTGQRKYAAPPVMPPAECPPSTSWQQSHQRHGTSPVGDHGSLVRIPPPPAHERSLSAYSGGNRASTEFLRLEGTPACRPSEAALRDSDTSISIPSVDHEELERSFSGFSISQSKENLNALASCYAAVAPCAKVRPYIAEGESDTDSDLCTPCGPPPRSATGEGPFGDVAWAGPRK
KCNQ2 block baseline: second read-out of KCNQ2 block, no call of its own (marks repeat the call); B-score; measured here: initial fluorescence intensity artifact check;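 brightness before thallium and not channel activity; 0 = typical well and far values either way flag optical interference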
* marks the source's active call; other numbers are inactive results; i = inactive. These rows are one share of the data; the hit share may differ from the screen's.

compound | KCNQ2 block | KCNQ2 block baseline
COc1cc(NC(=O)c2cc3nc(-c4ccccc4)cc(-c4ccccc4)n3n2)cc(OC)c1OC | -7.11* | -0.36*
CCN(CC(=O)Nc1cccc(C#N)c1)CC(=O)Nc1cccc(OC)c1 | i | 0.08
COc1ccc(CN2CC34C=CC(O3)C(C(=O)O)C4C2=O)cc1 (stereo not given) | i | -1.49
CCCOc1ccc(C(=O)CCC(=O)NNC(=O)Cn2nc(C)cc2C)cc1 | i | -0.24
CCCCNC(=O)Nc1cc(C(F)(F)F)c[nH]c1=O | i | 0.96
CCn1c2ccccc2c2cc(NC(=O)COc3ccccc3)ccc21 | i | 0.89
N=c1oc2ccccc2cc1-c1nc(-c2ccccc2)cs1 | i | 0.03
Cc1onc(-c2ccccc2)c1C(=O)N1CCN(c2ccccc2F)CC1 | i | -0.13
COc1ccccc1OCCNc1cc(N2CCOCC2)ccc1[N+](=O)[O-] | i | 0.02
COc1ccc([N+](=O)[O-])cc1-n1cnnn1 | i | 0.95
CC(NC(=O)COc1ncnc2cc([N+](=O)[O-])ccc12)c1ccccc1 (stereo not given) | i | -0.71
Cc1ccc(NC(=O)CSc2nc3ccccc3c(=O)n2CC2CCCO2)cc1 (stereo not given) | i | -0.64
CC(=O)NC(c1ccccc1)c1cccnc1 (stereo not given) | i | 1.91
O=C(Nc1ccc(Cl)c(Cl)c1)Nc1ccon1 | i | 0.98
CC1=CSC2=NC(C(F)(F)F)(C(F)(F)F)NC(=O)N12 | i | 1.4
COc1ccccc1-c1cc(C(F)(F)F)nc(NCc2ccco2)n1 | i | 0.54
O=C(Nc1ccccc1)c1nnsc1S(=O)c1ccc(Cl)cc1 (stereo not given) | i | -0.71
C(/CCc1ccccc1)=N\Nc1nc2ccccc2[nH]1 | i | -0.14
CCOc1ccc(CNC(=O)CCC(=O)N2Cc3cccc(OC)c3Oc3ncccc32)cc1 | i | 0.5
Cc1ccn2c(NC3CCCC3)c(-c3cccs3)nc2c1 | i | -1.03
COC(=O)c1[nH]c2ccccc2c1NC(=O)CN1CCC(C(N)=O)(N2CCCCC2)CC1 | i | 0.23
COc1ccc(C(=O)Nc2cccc(/C=C/c3nc4ccccc4c(=O)[nH]3)c2)cc1 | i | -0.75
COc1cccc(C2CC(c3ccccc3OC)n3nc(N)nc3N2)c1 (stereo not given) | i | -1.3
CC(=O)c1cc(C#N)c(Oc2cccc(C(F)(F)F)c2)nc1C | i | 1.71
COc1ccc(C(=O)Nc2nccs2)cc1 | i | -0.26
O=C(NC(CSCc1ccccc1)C(=O)N/N=C/c1ccc(O)cc1O)c1ccc([N+](=O)[O-])cc1 (stereo not given) | i | -1.45
CCO[C@@H]1OC(C(=O)Nc2ccccc2)=C[C@H](C)[C@H]1CCCO | i | 1.24
CCn1c(Cc2c(C)[nH]c3ccccc23)nnc1SCC(N)=O | i | -1.38
CCCOc1ccc(-c2nnc(-c3cccs3)o2)cc1 | i | 0.4
CCOc1cc(C2NC(=O)CCC2[N+](=O)[O-])cc(Br)c1OC (stereo not given) | i | 1.49
CC(=O)c1c(COC(=O)c2cccc(C)c2)nc2ccccc2[n+]1[O-] | i | -0.93
Fc1ccccc1CSc1ncnc2c1oc1ccccc12 | i | 0.05
C=CCn1c(SCC(=O)N2CCc3ccccc3C2)nc2ccccc2c1=O | i | -0.86
Cc1nn(CC(C)C)c(Cl)c1C(=O)N(c1ccc(Cl)cc1F)S(C)(=O)=O | i | 0.41
COc1ccc(CC(=O)Nc2ccc(S(=O)(=O)Nc3nccc(C)n3)cc2)cc1 | i | 0.15
COc1ccc(C(=O)N2CCc3cc(OC)c(OC)cc3C2)cc1OC | i | 1.77
Cc1cc2c(N)cccc2nn1 | i | -1.31
CCOC(=O)CN(C(=O)COc1nc(-c2ccccc2)cc(C)c1C#N)c1ccccc1C | i | -0.43
NS(=O)(=O)c1ccc(CNC(=O)c2ccc(NS(=O)(=O)c3ccc4[nH]c(=O)[nH]c4c3)cc2)cc1 | i | -1.61
CC1(C)Cc2c(sc3ncn4nc(CCC(=O)O)c(=O)nc4c23)CO1 | i | 1.49
COc1cccc(/C=N/NC(=O)CCCC(=O)Nc2ccc(Br)cc2)c1 | i | 0.01
CCCS(=O)(=O)N1CCCC(C(=O)N2CCN(c3ccccn3)CC2)C1 (stereo not given) | i | -1.31
CCc1cc(-c2n[nH]c(C)c2Oc2ccc(C(C)C)cc2)c(O)cc1O | i | 0.04
Cc1c(-c2ccccc2)nc2ccccc2c1C(=O)Nc1ccncc1 | i | -0.24
O=C(CN1C(=O)S/C(=C\c2ccccc2)C1=O)Nc1cc([N+](=O)[O-])ccc1O | i | -0.43
O=C(NCCNC1CCCCC1)c1ccco1 | i | 0.43
CCOc1ccc(N2C(=O)C3Sc4[nH]c(=O)sc4C(/C=C/c4ccccc4)C3C2=O)cc1 (stereo not given) | i | -1.3
CC(=O)Nc1ccc(OCC(O)CN2C(C)(C)CC(O)CC2(C)C)cc1 (stereo not given) | i | 0.94
COc1ccc(CNC(=O)CCNS(=O)(=O)c2ccc(Br)s2)cc1 | i | 2.32
CCCCOc1ccc(CSCCN)cc1Cl | i | -0.86
CC(C)CCNC(=O)C(c1ccco1)N(Cc1ccc(F)cc1)C(=O)c1snc(C(N)=O)c1N (stereo not given) | i | -1.46
COc1ccc(NC(=O)c2ccc(-c3csc(C)n3)cc2)cc1 | i | -0.34
OC(CNCC1COc2ccccc2O1)COc1ccc(Cl)cc1 (stereo not given) | i | 0.84
COc1ccc(CN(Cc2nc3ccccc3c(=O)[nH]2)C(=O)C(C)(C)C)cc1 | i | 0.57
COc1ccc(C(CNC(=O)c2ccc(-c3cccc(C(F)(F)F)c3)o2)N2CCOCC2)cc1 (stereo not given) | i | -0.16
C/C(=N\Nc1nc2ccccc2[nH]1)c1ccc([N+](=O)[O-])cc1 | i | -0.19
CC1(C)CC(NC(=O)C2CCCCC2C(=O)O)CC(C)(C)N1 (stereo not given) | i | 0.04
COc1cc(CNCc2ccncc2)cc(Br)c1OCc1ccccc1F | i | -2.38
O=C(Nc1cccc(S(=O)(=O)N2CCCCCC2)c1)C1CCN(C(=O)c2ccc(F)cc2)CC1 | i | 1.6
Cc1ccc(Nc2nc(N)nc(CN3CCCCCC3)n2)cc1 | i | -0.9

At a glance, part of the list above.
compound | KCNQ2 block | KCNQ2 block baseline
CC1(C)CC(NC(=O)C2CCCCC2C(=O)O)CC(C)(C)N1 (stereo not given) | i | 0.04
COc1cc(CNCc2ccncc2)cc(Br)c1OCc1ccccc1F | i | -2.38
O=C(Nc1cccc(S(=O)(=O)N2CCCCCC2)c1)C1CCN(C(=O)c2ccc(F)cc2)CC1 | i | 1.6
Cc1ccc(Nc2nc(N)nc(CN3CCCCCC3)n2)cc1 | i | -0.9

Following part.
compound | KCNQ2 block | KCNQ2 block baseline
Cc1cc(C(=O)Nc2ccccc2Cl)n(-c2ccccc2)n1 | i | -0.51
CC(C)n1c(CCC(=O)O)ccc1-c1ccccc1 | i | -0.29
O=S(=O)(NCCc1ccc(F)cc1)c1cccc2cccnc12 | i | 0.31
CCOC(=O)c1ccc(NC(=O)C2CCN(S(=O)(=O)c3c(C)nn(C)c3C)CC2)cc1 | i | -1.74
Cc1ccc(NC(=O)CSc2nc(N)c3c4c(sc3n2)CSC(C)(C)C4)cc1 | i | 1.42
Cc1ccccc1OCc1nc(-c2ccc(-n3cccc3)cc2)no1 | i | -0.57
CCC(Sc1nc(C)cc(C)n1)C(=O)Nc1ccc(Cl)cn1 (stereo not given) | i | -0.43
Cn1c(CNc2nc3ccccc3n2C)nc2ccccc21 | i | -0.68
CC(C)C(C(=O)Nc1ccccc1)N1C(=O)c2ccccc2C1=O (stereo not given) | i | 0.04
COc1cccc(C(=O)CSc2nc3cccnc3n2C)c1 | i | 0.5
Cc1cc(Nc2ccccc2Cl)nc(-c2ccccc2O)n1 | i | 0.32
CC(CCc1ccccc1)NC(=O)Cc1ccc(Br)cc1 (stereo not given) | i | -1.43
C=CCNC(=O)c1cc(-c2ccc3c(c2)OCO3)on1 | i | 0.43
Cc1ccc(OCCCC(=O)Nc2nncs2)cc1 | i | -0.45
COc1ccc(Cl)cc1/C=N/NC(=O)c1c(-c2ccccc2)noc1C | -6.17* | -1.92*
O=C(COC(=O)c1cc([N+](=O)[O-])ccc1N1CCOCC1)NCCc1ccccc1 | i | 1.79
Cc1ccc(C)c(NC(=O)COC(=O)COc2cccc3c2OC(C)(C)C3)c1 | i | -0.01
Cc1cc(C(=O)Cn2nc(C(=O)O)c3ccccc3c2=O)c(C)n1CCc1ccc(F)cc1 | i | 1.21
O=C(COc1ccc(Cl)cc1)N(Cc1cccs1)C1CCS(=O)(=O)C1 (stereo not given) | i | 0.69
COc1ccc(NS(=O)(=O)c2ccc3c(c2)CCCN3C(C)=O)cc1 | i | -2.65
CC(C)(C)c1ccc(COc2ccsc2C(=O)O)cc1 | i | -0.68
Cc1nnsc1C(=O)N1CCCC(C(=O)c2ccc(C(F)(F)F)cc2)C1 (stereo not given) | i | 0.74
Cc1nnc(SC(C)C(=O)NC2CCCCC2C)n1N (stereo not given) | i | 1.34
Oc1ccccc1-c1cc(-c2cccc(F)c2)n[nH]1 | i | -0.99
COc1cccc(-c2cc(C(F)(F)F)nc(N3CCOCC3)n2)c1 | i | 0.22
O=C(CN1C(=O)c2ccccc2C1=O)Nc1cccc(S(=O)(=O)Nc2ccccc2Cl)c1 | i | -0.16
Cc1ccc(C(=O)Nc2nnc(Cc3ccccc3)s2)cc1 | i | 2.74
CCOC(=O)c1cc(C(=O)OCC)c2cc(Br)ccc2n1 | i | -0.67
CSC1=NCCN1S(=O)(=O)c1ccc(F)cc1 | i | 0.67
O=C(NC(Cc1ccccc1)C(=O)O)/C(=C/c1ccc([N+](=O)[O-])cc1)NC(=O)c1ccccc1 (stereo not given) | i | -0.02
O=C(OCc1nc2ccccc2s1)c1cc2ccccc2oc1=O | i | 1.28
CCN(Cc1ccccc1)C(=O)CN1C(=O)c2ccccc2C1=O | i | 0.79
COc1ccc(S(=O)(=O)Cc2ccc(C(=O)NCc3ccccc3OC)o2)cc1 | i | -0.11
COc1ccccc1OCCCCCNCCO | i | 0.03
COC(=O)c1ccsc1NC(=O)CCS(=O)(=O)c1ccccc1 | i | 2.26
CC1(NC(=O)c2cc(S(=O)(=O)N3CCCCC3)ccc2Cl)CCS(=O)(=O)C1 (stereo not given) | i | 0.88
O=C1CCCC(O)=C1Sc1ccccc1C(=O)O | i | -1.27
CCCSC(=O)N(CC)CC(=O)Nc1c(CC)cccc1CC | i | -0.83
CC1CCCN(CC(=O)Nc2ccc(S(=O)(=O)N3CCCCC3)cc2)C1 (stereo not given) | i | -0.4
COc1ccc(CNC(=O)C(C)Sc2ccc(C)cc2)cc1 (stereo not given) | i | 0.94
O=C(CSc1nc2ccccc2s1)NNC(=O)Nc1ccc(Cl)c(Cl)c1 | i | -0.17
CCCCNC(=O)n1c(SC)nc2ccccc21 | i | -0.23
CCOc1ccccc1NC(=O)CN(c1ccc(OC)cc1OC)S(=O)(=O)c1ccccc1[N+](=O)[O-] | i | 0.21
CCOc1cc(C(=O)Nc2c3c(nn2C(C)(C)C)CS(=O)C3)cc(OCC)c1OCC (stereo not given) | i | -0.45
Cc1ccc(-n2c3nc(=O)[nH]c(=O)c-3cc3cc([N+](=O)[O-])ccc32)cc1 | i | -1.09
O=C(O)CSc1cccc2cccnc12 | i | 0.56
CCOC(=O)/C(=C/c1ccccc1)NC(=O)c1ccco1 | i | 2.24
CC(=O)c1c(N2CCCC2)nc(=S)n(-c2ccccc2)c1C | i | -0.25
CC(C)(C)OC(=O)NCCc1nnc(S(=O)(=O)Cc2ccc(Cl)cc2Cl)o1 | i | -1.37
CNC(=O)c1ccsc1NC(=O)CCS(=O)(=O)c1ccc(Cl)cc1 | i | -0.33
Cc1cccc(OCc2nc3ccccc3n2C)c1 | i | -0.87
CC1CC1C(=O)Nc1ccc(-c2ccccc2)cc1 (stereo not given) | i | -0.06
CC(Oc1ccccc1)C(=O)Nc1cccc([N+](=O)[O-])c1 (stereo not given) | i | 4.44
CCOC(=O)c1c(-c2ccc(OC)c(OC)c2)csc1NC(=O)C1CCCO1 (stereo not given) | i | -0.31
O=C(NCCCN1CCOCC1)c1cc(-c2ccccc2F)no1 | i | -0.26
O=C(Cn1c(=O)c2cccn2c2cccnc21)NCCCN1CCN(c2ccc(F)cc2)CC1 | i | 1.19
Cc1sc(NC(=O)CSc2nnnn2C2CCCC2)c(C#N)c1C | i | -1.6
O=C(NC1CCCCC1)NC1CC2CCC(C1)N2Cc1nnnn1Cc1ccc2c(c1)OCO2 (stereo not given) | i | 0.65
CC(c1nnc(SCn2nnc3ccccc3c2=O)n1-c1ccc(Cl)cc1)N(C)C (stereo not given) | i | 1.37
Cc1onc(NC(=O)NC(=O)c2c(Cl)cccc2Cl)c1Br | i | 0.9
CC1(c2ccc(Cl)cc2)NC(=O)N(CC(=O)Nc2ccc(N3CCCCC3)cc2)C1=O (stereo not given) | i | 2.24

Among those listed so far, these contain a tert-butyl group.
compound | KCNQ2 block | KCNQ2 block baseline
COc1ccc(CN(Cc2nc3ccccc3c(=O)[nH]2)C(=O)C(C)(C)C)cc1 | i | 0.57
CC(C)(C)c1ccc(COc2ccsc2C(=O)O)cc1 | i | -0.68
CCOc1cc(C(=O)Nc2c3c(nn2C(C)(C)C)CS(=O)C3)cc(OCC)c1OCC (stereo not given) | i | -0.45
CC(C)(C)OC(=O)NCCc1nnc(S(=O)(=O)Cc2ccc(Cl)cc2Cl)o1 | i | -1.37
